Screening results from PubChem.
gsp antag = qHTS for Antagonists of gsp, the Etiologic Mutation Responsible for Fibrous Dysplasia/McCune-Albright Syndrome: qHTS | AID 624288, 2012 | gsp-mutant cells, cAMP HTRF, 30 min; control for the full effect not named in the record | 340,000 compounds, 0.4% hits | Potency, µM (top dose mostly 76.9 µM), inactives show at the highest dose activity change, negative = inhibition, most hits filed as inhibitors; active = falling curve of any shape with a large fitted effect; inconclusive = falling curve, mostly with a smaller effect; inactive = flat or rising curve; cell line not stated here;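 note: intracellular cAMP measured with PDE inhibitor Ro 20-1724 present during compound exposure; potency is the fitted concentration of half-maximal effect; % is set by controls: 0 for no effect and ±100 for the full control effect; nearly all actives have a fitted effect of over 65% in size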
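HTRF cAMP measurement after 30 min RT detection following 30 min, 37C compound treatment alongside […] (added as 300 uM solution) in G418-selected cells seeded at 2000/well and grown 16–24 h.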
ClpP mod = qHTS Assay for Activators of ClpP. purified B. subtilis ClpP, FRET peptide cleavage, 20 min. Potency, µM (doses to about 57.5 µM), for inactives: at the highest dose activity change, negative = active. 340,000 compounds, 1.9% hits. AID 651965, 2013; active = well fitted falling curve with a large enough effect; inconclusive = small, poorly fitted or top-dose-only effect; inactive = no such curve, though single readings can be large or run the other way; note: potency is the fitted concentration of half-maximal effect; the source files actives as falling curves though it sought activators and does not explain the sign; nearly all actives have a fitted effect of over 65% in size; many hits overshoot -100%
Target sequence (P80244 whole entry, looked up): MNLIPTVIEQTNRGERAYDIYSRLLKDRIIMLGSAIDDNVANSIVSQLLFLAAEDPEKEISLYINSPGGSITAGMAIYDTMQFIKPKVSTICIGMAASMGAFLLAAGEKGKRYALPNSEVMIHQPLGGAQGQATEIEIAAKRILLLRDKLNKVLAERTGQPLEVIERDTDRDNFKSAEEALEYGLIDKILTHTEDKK
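ClpP 10 microg/mL final, pH 8 Tris/KCl buffer with BSA, glycerol, Tween-20; compound pinned in; FRET-FV substrate; RT 20 min; Ex320/Em430; ΔFRET vs ADEP 5.8 microM, DMSO, no enzyme.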
CtBP-E1A blk = qHTS Assay for Inhibitors of the CtBP/E1A Interaction. CtBP / adenovirus E1A interaction (AlphaScreen). AlphaScreen GST-E1A/His-CtBP binding, 1536-well; active compounds read low; control for the full effect not named in the record. activity change, % (test concentration not listed). 340,000 compounds, 0.49% hits; in the data active means activity change below about -65%; inconclusive means about -30% to -65%; inactive means above about -30%; note: % is set by controls: 0 for no effect and ±100 for the full control effect
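In 5 uL wells, 23 nL compound meets equimolar GST-E1A and His-CtBP (5X stock 125 nM each) for 2 h, 37 °C. Beads (5X, 50 ug/mL) then 1 h, 37 °C, dark.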
TRPV1 PAM = HTS Assay for Compounds that Act as Potentiators of the Vanilloid Receptor 1 | TRPV1-expressing cells, Fluo-8 calcium influx, capsaicin EC20 potentiation; host cell line not named in the record; control for the full effect not named in the record | potentiation, % at 8.33 µM | Transient receptor potential cation channel subfamily V member 1 (Homo sapiens), Q8NER1 | AID 540277, 2011 | 320,000 compounds, 0.02% hits; active means potentiation above 80%; inconclusive means 30% to 80%; inactive means below 30%; note: 0% is about no effect
Target sequence (Q8NER1 whole entry, looked up): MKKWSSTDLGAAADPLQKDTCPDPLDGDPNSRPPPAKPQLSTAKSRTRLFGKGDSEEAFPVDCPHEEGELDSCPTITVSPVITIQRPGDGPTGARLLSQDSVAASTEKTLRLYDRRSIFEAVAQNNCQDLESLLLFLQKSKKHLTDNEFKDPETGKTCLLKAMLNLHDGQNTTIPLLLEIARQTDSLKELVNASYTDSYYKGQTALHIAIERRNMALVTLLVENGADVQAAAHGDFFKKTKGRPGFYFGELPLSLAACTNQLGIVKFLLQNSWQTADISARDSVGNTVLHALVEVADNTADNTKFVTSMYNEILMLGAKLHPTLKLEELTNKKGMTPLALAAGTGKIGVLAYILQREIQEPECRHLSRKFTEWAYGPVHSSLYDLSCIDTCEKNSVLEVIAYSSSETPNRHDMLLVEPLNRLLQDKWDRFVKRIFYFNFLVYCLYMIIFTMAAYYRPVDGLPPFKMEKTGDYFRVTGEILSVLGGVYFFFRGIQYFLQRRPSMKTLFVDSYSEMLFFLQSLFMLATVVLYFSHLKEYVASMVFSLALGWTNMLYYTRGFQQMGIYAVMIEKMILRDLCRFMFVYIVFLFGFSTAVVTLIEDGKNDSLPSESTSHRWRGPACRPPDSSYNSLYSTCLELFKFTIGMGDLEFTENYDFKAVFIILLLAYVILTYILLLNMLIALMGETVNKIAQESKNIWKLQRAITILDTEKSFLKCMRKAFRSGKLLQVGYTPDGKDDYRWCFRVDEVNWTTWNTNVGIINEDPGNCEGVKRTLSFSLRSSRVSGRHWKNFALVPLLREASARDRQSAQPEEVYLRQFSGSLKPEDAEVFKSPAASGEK
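Fluo-8 calcium influx in TRPV1-expressing cells, kinetic read (ex 480/em 520 nm). Compound added and read 3 min for agonist activity, followed by capsaicin at EC20 final and 2 min further read for enhancement.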
gsp agonist = qHTS for Agonist of gsp, the Etiologic Mutation Responsible for Fibrous Dysplasia/McCune-Albright Syndrome: qHTS. gsp mutant cells, cAMP HTRF, 30 min; control for the full effect not named in the record. Potency, µM (top dose mostly 76.9 µM), inactives show at the top dose activation (cAMP increase), most hits filed as activators. 340,000 compounds, 0.13% hits. AID 624287, 2012; active = well fitted activation curve with a large enough effect; inconclusive = small, poorly fitted or top-dose-only effect, or another doubt; inactive = no such curve, though single readings can be large or run the other way; cell line not stated here;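 note: phosphodiesterase inhibitor Ro 20-1724 added with compounds to block cAMP breakdown; potency is the fitted concentration of half-maximal effect; nearly all actives have a fitted effect of over 60% in size; about a fifth of the inactives were tested at one dose only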
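Cells stably selected in G418 were plated at 2000/well, grown 16-24 hr, then given compounds in DMSO with the PDE inhibitor […] (300 uM solution added) for 30 min at 37C; cAMP was read by HTRF.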
Sfp inh = qHTS Assay for Inhibitors of Bacillus subtilis Sfp phosphopantetheinyl transferase (PPTase); 4'-phosphopantetheinyl transferase ffp (Bacillus subtilis), Q9F4F7; Biochemical Sfp PPTase activity, qHTS; Potency, µM, without a hit: max response, negative = inhibition, most hits filed as inhibitors; 310,000 compounds, 3.5% hits; active = well fitted inhibition curve with a large enough effect; inconclusive = small, poorly fitted or top-dose-only effect, or another doubt; inactive = no such curve, though single readings can be large or run the other way;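 note: the enzyme is Sfp with the accession as filed and its product quenches rhodamine fluorescence; potency is the fitted concentration of half-maximal effect; 0% = enzyme reaction without inhibitor and -100% = no enzyme wells; top concentration of the series not given in the record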
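Buffer: 50 mM Hepes-Na pH 7.6, 10 mM MgCl2, 0.01% Nonidet P-40, 0.01% BSA. Enzyme 15 nM, pre-exposed to compound 15 min; substrates then added and fluorescence change tracked over 30 min.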
Menin-MLL FL inh = qHTS Assay for Inhibitors Targeting the Menin-MLL Interaction in MLL Related Leukemias: Competition With Fluorescein Labeled MLL-derived Peptide | AID 1766, 2009 | Fluorescence polarization, fluorescein-MLL peptide displacement from menin | FP activity change, % at 61.4 µM | 290,000 tested, under 10 active; inconclusive = falling polarisation curve, or a change in total fluorescence; inactive = total fluorescence flat and polarisation flat or rising; no compound was filed as active; the % refers to the polarisation; negative = inhibition;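 note: % of control where 0% means no effect; inhibitors lower the polarisation; unlabelled MLL peptide was the positive control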
The depositor's hits bear a star; u = inconclusive; x = not tested or not shown; & = joins results of further samples; [ ] = remark or other dose.

structure,gsp antag,ClpP mod,CtBP-E1A blk,TRPV1 PAM,gsp agonist,Sfp inh,Menin-MLL FL inh
O=S(=O)(c1cccc2cccnc12)N1CCN(c2ccccc2)CC1,-10%,0.2%,-7,5,-1%,1%,4.4
CC1CCCN(c2nc3ccccc3nc2C(C#N)S(=O)(=O)c2ccccc2)C1 (configuration not stated),-9%,-12%,3,3,27%,-6%,u
CC(C)OC(=O)CN1CCN(C2c3ccccc3-c3ccccc32)CC1,0%,0.7%,-3,-6,-7%,13%,0.8
CC(C)(C)c1nnc(NC(=O)CS(=O)(=O)Cc2ccccc2)s1,6%,x,1,7,7%[15.4 µM],20%,2.9
O=C(NC1CCCCC1)[C@H](CSCc1ccccc1)N1Cc2ccccc2C1=O,-9%,1.2%,-1,-17,-4%,2%,3.5
Cc1onc(-c2ccccc2)c1C(=O)Nc1nc(-c2cc(F)ccc2F)cs1,18%,5.7%,6,u,u,3%,4.0
O=C(Nc1ncc2c(n1)CC(c1ccc(Cl)cc1)CC2=O)c1ccco1 (configuration not stated),-2%,x,-5,-10,-5%[15.4 µM],u,1.8
Cc1nnsc1-c1onc(C)c1C(=O)O/N=C/c1ccc(Cl)cc1,6%,-3.1%,-24,-8,0%,13%,4.0
Cc1ccc2c(Cn3ccnc3)cc(=O)oc2c1C,7%,-8.2%,x,3,-23%,1%,-2.9
O=C(Cc1ccccc1)Nc1ccc(NC(=O)c2cccs2)cc1,-3%,-1.9%,1,-25,2%[15.4 µM],23%,1.7
CC(C)CN(CC(C)C)S(=O)(=O)N1CCC(C(=O)NCc2cccs2)CC1,-11%,-3.0%,-10,-9,9%,23%,-6.6
CN(C)C(=O)CCc1ccc2c3c([nH]c2c1)[C@]1(C)[C@@H](C(=O)N2CCOCC2)C[C@H](CC(=O)NC(C)(C)C)C(=O)N1CC3,11%,-3.0%,8,x,x,x,x
CC(NC(=O)Cn1cccc1C(=O)c1ccccc1)c1ccc2c(c1)OCCO2 (configuration not stated),-2%,1.4%,x,1,-34%[inhibitor],-3%,-5.0
COC(=O)CCC(=O)NC(=S)Nc1cc(Cl)ccc1Cl,-9%,0.0%,26,-4,-15%,-7%,-0.4
COC(=O)c1c(C)cc(O)c(C)c1O,3%,-3.9%,-5,x,x,x,x
COc1cc(C(c2c(C)[nH][nH]c2=O)c2c(C)[nH][nH]c2=O)ccc1OC(=O)c1cccc([N+](=O)[O-])c1,3%,-1.9%,-13,-10,-59%[inhibitor],-4%,0.4
O=C(NCCCNC(=O)c1ccco1)c1ccc(F)cc1,6%,x,4,-3,9%,21%,1.0
CCc1ccc(S(=O)(=O)N2CCN(C(=O)C3CCN(C(C)=O)CC3)CC2)cc1,-5%,-5.6%,6,-8,-3%,12%,x
O=C(OCCOc1cccc(Cl)c1)c1ccc2ncsc2c1,5%,x,13,5,-3%[15.4 µM],-22%,4.4
Cn1c(SCC(=O)c2ccccc2)nnc1-c1cccs1,-11%,-2.7%,x,-10,2%,-1%,7.6
CCCCOc1ccc(N=Nc2ccc(N)nc2N)cn1,-4%,4.9%,x,4,14%,1%,5.5
Cc1cc(C)c2oc(C(=O)NC3CCS(=O)(=O)C3)cc(=O)c2c1 (configuration not stated),3%,-4.6%,1,-3,22%,19%,x
CCn1cc(C(=O)NCCc2ccc(C)cc2)c(=O)c2cc(S(=O)(=O)N(C)C)ccc21,9%,-3.7%&-5.4%,x,-17,21%,12%,0.5
Cn1cccc1Cc1nnc(SCC(=O)N2CCCc3ccccc32)n1-c1ccc(F)cc1,-9%,6.9%,-8,-9,3%,-20%,3.9
O=C(Oc1ccc(C(=S)N2CCCCC2)cc1)c1ccccc1F,7%,1.1%,x,7,-88%[inhibitor],-4%,2.5
Cc1c(C(=O)Nc2ccccc2)sc2nc3n(c(=O)c12)CCCCC3,-25%,-1.4%,-21,-18,-44%[inhibitor],14%,-5.8
O=[N+]([O-])c1ccc(NCCCc2ccccc2)cc1,x,-1.6%,-3,x,1%,x,x
Cc1cccc(NC(=O)c2ccc(N3CCOCC3)c([N+](=O)[O-])c2)n1,-9%,u,-1,5,7%[15.4 µM],18%,-2.3
CCOc1ccc(C(c2c(C)[nH][nH]c2=O)c2c(C)[nH][nH]c2=O)cc1OCC,-14%,0.0%,0,1,-17%,2%,5.1
O=C1N=C(N2CCOCC2)S/C1=C/c1ccc(-c2ccc(F)cc2)o1,u,x,0,-9,-8%,-4%,5.8
CC1CCN(C(=O)CSc2nnc3c(n2)[nH]c2ccccc23)CC1,10%,-0.1%,-2,-7,-7%[15.4 µM],-16%,x
COCC1CCN(C(=O)C2CCC(=O)N(C3CCCC3)C2)CC1 (configuration not stated),7%,1.2%,0,2,12%,17%,5.4
Cc1cc(C)c2nc(-c3ccco3)cc(C(=O)O)c2c1,-17%,x,3,2,24%,20µM*,u
COc1ccc(C(CNC(=O)c2oc3cc(C)c(Cl)cc3c2C)N2CCCCC2)cc1 (configuration not stated),4%,-3.9%&-0.7%,x,3,-1%,-1%,x
Cc1ccc(NC(/C=C/N(C)C)=C/C(=O)C(F)(F)F)c(C)c1,u,x,-4,-12,u,1%,-0.6
Cc1noc(NC(=O)c2ccccc2C(F)(F)F)c1C#N,1%,x,7,3,7%[15.4 µM],7%,-0.4
CCCNC(=O)C(Cc1ccc(F)cc1)NC(=O)c1ccc(C#N)cc1 (configuration not stated),10%,-1.3%,6,-11,-32%[inhibitor],x,x
COc1ccc(NC(=O)N(C)C[C@@H]2Oc3ncc(Br)cc3C(=O)N([C@@H](C)CO)C[C@@H]2C)cc1,x,-2.5%,-5,x,-24%,x,x
CCCCOP(=O)(OCCCC)C(O)c1ccc(F)cc1 (configuration not stated),19%,-1.8%,-1,-14,-6%[15.4 µM],4%,-0.8
N#CC(C#N)=C1SC(=Nc2ccccc2)C(=Nc2ccccc2)N1c1ccccc1,-11%,7.9%,34,x,10%,x,x
COc1ccc(NC(=O)c2cc3c(COC(C)=O)cnc(C)c3oc2=Nc2cccc(C(=O)O)c2)c(OC)c1,-11%,0.4%,x,15,u,1%,-4.4
COc1ccccc1N1CCN(c2ccc([N+](=O)[O-])cn2)CC1,-1%,x,-4,-14,u,1%,-0.7
O=C1C2ON(c3ccccc3)C(c3ccncc3)C2C(=O)N1c1ccc(Br)cc1 (configuration not stated),u,-1.1%,2,-1,-13%,15%,1.7
O=S1(=O)CCN2C=C(Br)C=C(Br)C2=N1,14%,25µM*,6,3,24%,10%,1.2
CCCc1cc(=O)[nH]c(SCC(=O)Nc2ccc(Cl)c(S(=O)(=O)N3CCOCC3)c2)n1,-11%,0.4%,-11,18,-3%,x,x
COc1cccc(NC(=O)c2cc3ccccc3cc2OC)c1,-25%,-8.6%,x,17,-30%[inhibitor],-12%,-0.8
CC(C)CC(COCc1cccc(Cl)c1)N1CCN(C(=O)c2cccc(C(F)(F)F)c2)CCC1=O (configuration not stated),-18%,-0.6%,0,3,x,6%,0.6
O=S(=O)(NC1CCCCC1N1CCN(c2cccc(Cl)c2)CC1)c1ccccc1 (configuration not stated),2%,-1.8%,-18,-5,22%,3%,-1.2
CC(=O)Nc1ccc(S(=O)(=O)NCCC(=O)OCC(=O)NC(C)c2ccc(Cl)cc2)cc1 (configuration not stated),3%,-0.7%,x,x,u,x,x
COc1cc2c(cc1OC)C(c1ccncc1)CC(=O)N2 (configuration not stated),8%,-5.2%,-11,-4,-10%,u,0.2
O=C(CN1CCCCCC1)N1c2ccccc2Sc2ccccc21,x,x,-11,0,25%[15.4 µM],9%,0.9
O=S(=O)(/C=C/c1ccccc1)N1CCN(c2ccc(F)cc2)CC1,-5%,0.6%,0,12,-13%,11%,1.1
FC(F)(F)c1nc2cc3nc4ccccc4[nH]c3cc2n1,u,0.5%,u,10,-2%[15.4 µM],2%,u
COc1ccc(C2=CC(=O)C[C@H](c3ccc(Cl)cc3)C2)cc1,u,-11%,0,2,x,x,x
Cc1nc(SC(C(=O)c2ccccc2)c2ccccc2)nc2ccccc12 (configuration not stated),-8%,-1.2%,5,10,-11%,5%,7.2
CCN1CCN(CCC(=O)Nc2cc(OC)ccc2OC)CC1,6%,1.6%,4,0,-2%[15.4 µM],1%,1.7
COC(=O)c1cc(NS(=O)(=O)c2ccc(OC)c(OC)c2)ccc1Cl,3%,4.2%,21,9,u,-5%,4.8
COc1ccc(CC(=O)N/N=C(\C)c2cccnc2)cc1,1%,1.2%,5,11,1%,-5%,1.3
O=C(NCCCn1ccnc1)/C(=C\c1cccnc1)NC(=O)c1ccccc1F,4%,1.7%,x,7,-30%[inhibitor],13%,-3.3
CC(C)n1c(NCc2ccc(N(C)C)cc2)nc2ccccc21,1%,-3.5%,-14,u,-46%[inhibitor],-4%,-1.2

Next structures:
structure,gsp antag,ClpP mod,CtBP-E1A blk,TRPV1 PAM,gsp agonist,Sfp inh,Menin-MLL FL inh
CCn1c(CC(=O)Nc2cccc(Cl)c2Cl)nnc1SCCOc1ccc(OC)cc1,-13%,-0.3%,-5,-5,-1%,4%,2.9
Cc1ccccc1CC(=O)c1ccc(O)c(C)c1O,-23%,x,22,10,3%[15.4 µM],1%,-0.6
C=CCOc1ccc(/C=N/Nc2ccccn2)cc1OC,4%,x,-20,21,-24%[15.4 µM],u,-11
CSc1nnc(-c2cccn(Cc3cccc(Cl)c3)c2=O)o1,12%,-2.7%,6,4,0%[15.4 µM],12%,-0.8
O=C(NCCOc1ccccc1)c1cccc(S(=O)(=O)N2CCN(Cc3ccccc3)CC2)c1,x,0.9%,5,x,-5%,x,x
